Six1-Eya2 inh: inhibitors of human Six1/Eya2 interaction. Q15475+O00167. AlphaScreen GST-Six1/His-Eya2 binding, biochemical; hits give low values; control for the full effect not named in the record. activity change, % (test concentration not listed). 0.56% of 360,000 active. AID 651725; in the data active = activity change below about -65%; inconclusive = about -30% to -65%; inactive = above about -30%; also: % is scaled to controls: 0 for no effect and ±100 for the full control effect; compound concentration not given in the record
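AlphaScreen with GST-Six1 and His-Eya2 (5X mix: 250 nM and 500 nM), glutathione donor and nickel acceptor beads; buffer 50 mM Tris pH 8.0, 300 mM NaCl, 1 mM TCEP; 1 h at 37 C in the dark.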
TRPML1 ag: agonists of human TRPML1 channel; Q9GZU1; TRPML1-expressing cells, Ca2+ dye fluorescence, FDSS; host cell line not named in the record; reference of the full effect not given here; activation, % (concentration not given with the values); 0.12% of 410,000 active; in the data active = activation above about 50%; inconclusive = about 30% to 50%; inactive = below about 30%; also: 0% is about no effect; the text of the record puts the active cut at 80%
Target sequence (Q9GZU1 whole entry, looked up): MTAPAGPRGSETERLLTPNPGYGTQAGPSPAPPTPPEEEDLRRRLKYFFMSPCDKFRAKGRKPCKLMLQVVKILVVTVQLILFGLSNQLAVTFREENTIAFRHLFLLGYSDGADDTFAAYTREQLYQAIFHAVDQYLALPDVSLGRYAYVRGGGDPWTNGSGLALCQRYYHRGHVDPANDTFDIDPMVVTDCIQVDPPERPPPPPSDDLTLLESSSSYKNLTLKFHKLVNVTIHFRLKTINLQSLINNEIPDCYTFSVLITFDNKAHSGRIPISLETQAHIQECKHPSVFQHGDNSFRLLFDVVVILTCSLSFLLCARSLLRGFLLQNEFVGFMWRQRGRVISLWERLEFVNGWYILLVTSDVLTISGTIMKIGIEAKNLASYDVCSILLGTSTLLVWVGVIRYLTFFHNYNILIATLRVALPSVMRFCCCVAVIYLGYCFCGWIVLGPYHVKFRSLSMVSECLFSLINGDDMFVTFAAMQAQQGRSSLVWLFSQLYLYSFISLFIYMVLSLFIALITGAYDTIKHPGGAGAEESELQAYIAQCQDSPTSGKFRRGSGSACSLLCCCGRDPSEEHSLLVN
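Cells: TRPML1-DL, 1X Tet inducer, ~16 h at 37 degrees C/5% CO2. Dye: ABD Ca8 no-wash + quencher, 45-90 min RT. Read: 10 s baseline, compound add, 110 s agonist phase; 54-4 EC80 (4uM final), 110 s antagonist phase.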
TRPML1 inh: human mucolipin-1 channel inhibition; TRPML1-inducible cells, Ca2+ dye fluorescence, FDSS; hits give low values; inhibition of EC80 agonist-evoked calcium signal; activity change, negative = inhibition, % (no concentration beside the values); 0.02% of 390,000 active; AID 624415; in the data active means activity change below about -50%; inconclusive means about -30% to -50%; inactive means above about -30%;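 also: stimulus is agonist 54-4 at its EC80 concentration; % is scaled to controls: 0 for no effect and ±100 for the full control effect; compound concentration not given in the record; the text of the record puts the active cut at -80%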
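Tet-induced TRPML1-DL cells loaded with Ca8 no-wash calcium dye were read kinetically on FDSS. Compound addition was followed by EC80 agonist 54-4 (4 uM final); inhibition was read over 110 s.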
D2 ag: human D2 receptor agonism in beta-arrestin assay | 0.084% of 360,000 active | activation, % (no concentration beside the values) | P14416 | DiscoveRx PathHunter D2 beta-arrestin, luminescence, 90 min; 100% = 57 uM dopamine signal; in the data active = activation above about 40%; inconclusive = about 15% to 40%; inactive = below about 15%; also: compound concentration not given in the record; the text of the record calls up to 30% inactive
Target sequence (P14416 whole entry, looked up): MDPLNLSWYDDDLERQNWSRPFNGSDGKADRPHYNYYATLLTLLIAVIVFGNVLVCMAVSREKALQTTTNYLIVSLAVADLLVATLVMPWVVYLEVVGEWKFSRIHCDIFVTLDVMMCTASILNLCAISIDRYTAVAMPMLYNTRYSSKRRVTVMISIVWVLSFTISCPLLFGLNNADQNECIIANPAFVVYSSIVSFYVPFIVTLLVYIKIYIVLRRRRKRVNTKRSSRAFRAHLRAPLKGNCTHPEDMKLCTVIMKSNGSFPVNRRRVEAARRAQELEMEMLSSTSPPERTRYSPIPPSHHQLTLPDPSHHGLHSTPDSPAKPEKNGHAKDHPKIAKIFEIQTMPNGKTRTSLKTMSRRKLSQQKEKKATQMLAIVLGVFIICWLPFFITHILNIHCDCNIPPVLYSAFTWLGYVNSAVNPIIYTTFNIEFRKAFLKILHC
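Agonist mode: compounds alone added to overnight-plated D2 PathHunter cells for 90 min at 37 C, with 57 uM final dopamine (EC100) defining full response. Beta-arrestin recruitment detected by chemiluminescent reagent, read after 1 h at ambient temperature.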
PINK1 modulator: changes PINK1 expression; PINK1 immunofluorescence, high-content cytometry, 24 h; Potency, µM (series often up to 76.6 µM), without a hit: at the highest dose activation (PINK1 increase), usual class: activators; 0.2% of 410,000 active; active = well fitted activation curve with a large enough effect; inconclusive = small, poorly fitted or top-dose-only effect; inactive = flat fitted curve, though single readings scatter; cell line not stated here;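 also: potency is read from the fitted curve at half-maximal effect; % of control where 0% means no effect; nearly all actives have a fitted effect of over 65% in size; a mitochondrial uncoupler was the plate control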
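Decision-based qHTS: stable cells, 24 h exposure to five compound concentrations, CCCP as control. Fixed cells stained for PINK1 plus nuclear, mitochondrial and cell markers, cytometer read.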
CtBP-E1A blk: inhibitors of CtBP/E1A interaction; AlphaScreen GST-E1A/His-CtBP binding, 1536-well; hits give low values; control for the full effect not named in the record; activity change, % (no concentration beside the values); 0.49% of 340,000 active; AID 651724; in the data active means activity change below about -65%; inconclusive means about -30% to -65%; inactive means above about -30%; also: % is scaled to controls: 0 for no effect and ±100 for the full control effect; compound concentration not given in the record
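In 5 uL wells, 23 nL compound meets equimolar GST-E1A and His-CtBP (5X stock 125 nM each) for 2 h, 37 °C. Beads (5X, 50 ug/mL) then 1 h, 37 °C, dark.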
* marks the source's active call; other numbers are inactive results; u = inconclusive; x = no result given; [ ] = another dose, or the depositor's remark.

Compound | Six1-Eya2 inh | D2 ag | PINK1 modulator | CtBP-E1A blk | TRPML1 inh | TRPML1 ag
COc1cc2oc3ccccc3c2cc1N(CC(=O)N1CCCCC1)S(=O)(=O)c1ccc(C)cc1 | -4 | -4.0 | 1.4% | -9 | -8 | 1.8
CCOc1ccc(N(CC)C(=O)c2cc3c(s2)-c2ccc(Cl)cc2SC3)cc1 | x | x | 2.9% | x | -24 | 5.0
CC(=NC1CCN(Cc2ccccc2)CC1)c1c(O)[nH]c(=O)[nH]c1=O | 0 | 0.9 | -6.9%[38.3 µM] | 7 | -3 | -0.5
Cc1ccc2cccc(S(=O)(=O)Nc3c(C)n(C)n(-c4ccccc4)c3=O)c2n1 | 0 | -1.8 | 3.4%[38.3 µM] | 8 | -4 | 0.2
O=C1NC(=O)C(CCc2ccccc2)(c2ccccc2)N1 (centres undefined) | -2 | -3.1 | 4.3% | 4 | -5 | -0.5
CCCCSc1nc(N)c(C#N)c(-c2cccs2)c1C#N | 6 | -3.0 | -3.3%[38.3 µM] | 8 | 22 | 3.5
O=C(COC(=O)c1cc(=O)[nH]c2ccccc12)NCc1ccccc1Cl | -2 | -1.2 | 0.4% | 1 | 5 | -0.8
O=C(c1ccccc1)N1CCN(C(=O)c2cc3ccccc3oc2=O)CC1 | 3 | -0.8 | 1.2% | -10 | -6 | 0.1
COc1ccc(NC(=O)C2(C)CCN2CCOc2ccc(C)cc2)cc1OC (centres undefined) | -3 | 5.7 | -0.9% | -1 | x | -1.5
Cc1ccc(C(=O)CSc2nnc(-c3ccco3)n2CC2CCCO2)cc1 (centres undefined) | 3 | -4.4 | -0.7% | 9 | -5 | -0.2
CCOC(=O)[C@@H]1[C@H]2COc3ccccc3[C@@H]2N2C(=O)N(c3ccccc3)C(=O)[C@]12C | 2 | -6.0 | 0.5% | 4 | 1 | 0.6
CCOc1ccccc1CNC(=O)CN1C(=O)CCCc2ccccc21 | x | x | -1.3% | x | 3 | 0.2
CC(=O)Nc1ccccc1-c1nc2ccccc2n(CC(=O)Nc2cccc(C)c2C)c1=O | x | x | 2.3% | x | 9 | -0.3
COc1ccccc1NC(=O)c1ccc2c(c1)N(CC(=O)NC(C)(C)C)C(=O)C(C)(C)O2 | 7 | -2.7 | 1.1% | 4 | -9 | 0.1
COc1ccc(N(CC(=O)NCc2ccc(F)cc2)C(=O)Cn2nnc(-c3ccc(C)o3)n2)cc1OC | 8 | -4.8 | 4.7% | 1 | -9 | -0.2
COc1ccccc1NS(=O)(=O)c1cc(N/C(=N/S(=O)(=O)c2ccccc2)c2ccc(F)cc2)ccc1Cl | -1 | 2.4 | -0.5% | -10 | 9 | -0.5
CCOC(=O)c1cccnc1NC(=O)c1ccncc1 | 0 | -0.7 | -0.8% | 6 | -3 | -0.6
CCOc1ccccc1NC(=O)c1ccc2oc(=O)c(S(=O)(=O)c3ccc(F)cc3)cc2c1 | x | x | 4.0% | x | -12 | -0.2
Cc1cc(OCC(=O)Nc2ccccn2)c2c(C)c(C)c(=O)oc2c1 | 1 | 1.3 | 4.9% | x | 16 | 0.4
COc1cccc(C(=O)NCCS(=O)(=O)N(C)C2CCCCC2)c1 | 6 | -1.5 | -1.4% | -3 | 53 | -0.1
COc1ccc(Cc2nc3ccc(C(=O)N(C)C(C)c4ccon4)cc3o2)cc1 (centres undefined) | 11 | -3.6 | 1.8% | 4 | -4 | -0.5
Cc1cc(C)n2nc(SCC(=O)NC(=O)c3ccc(OC(F)F)cc3)nc2n1 | -6 | 0.0 | 1.9% | x | -6 | -0.1
N#CC1=C(N)N(c2ncn[nH]2)C2=C(C(=O)CCC2)C1c1ccc(F)cc1 (centres undefined) | -2 | -0.5 | 0.9% | 8 | -5 | 0.1
Cc1cc(O)c2c(c1)C(O)(C1OC(CO)C(O)C(O)C1O)c1cccc(O)c1C2=O (centres undefined) | 2 | 2.4 | 0.8% | 2 | 7 | 0.7
Cc1cc(NC(=O)CCC(=O)N(Cc2cccs2)C(C(=O)NC2CCCC2)c2ccccc2)no1 (centres undefined) | 2 | -3.0 | -0.7% | 3 | -16 | 1.8
Cc1cc(N2CCN(C(=O)c3ccco3)CC2)n2nc(-c3cccc(F)c3)cc2n1 | -7 | -1.7 | -6.4%[38.3 µM] | -4 | -4 | 1.8
S=C(Nc1ccccc1)N(CCN1CCOCC1)Cc1cccc(Cl)c1 | 1 | 3.2 | 4.8% | -1 | 22 | 1.3
CN(C)S(=O)(=O)c1ccc(Cl)c(NC(=O)CN2CCNC(=O)C2)c1 | 7 | -7.6 | 0.5% | 4 | -6 | 0.1
Cc1cc(C(=O)COC(=O)c2ccc(F)cc2)c(C)n1C | 3 | 3.8 | 16% | 1 | 16 | 2.3
COC(=O)c1c(NC(=O)CN2CCN(C(=O)c3ccco3)CC2)c2cc(C)ccc2n1C | -2 | -0.3 | -0.7% | -6 | 5 | 1.7
C/C=C/c1ccc(OCC(=O)Nc2cc(S(=O)(=O)N3CCOCC3)ccc2N2CCCC2)c(OC)c1 | -27 | -3.8 | -0.2% | -30 | 5 | 1.8
Cc1ccc(CNC(=O)C(=O)Nc2c3c(nn2-c2ccccc2)CSC3)cc1 | x | x | 13% | x | -19 | -0.8
CNc1nnc(CSc2nc(C)cc(C)n2)s1 | 8 | -0.9 | 1.9% | -8 | -6 | 0.5
Cc1ccc2c(SCC(=O)NCc3ccco3)nc(-c3ccc(F)cc3)nc2c1 | -2 | -3.9 | u | -5 | -9 | 0.6
O=C(CSC1=NS(=O)(=O)c2cc(F)ccc2N1)Nc1cccc(F)c1 | 3 | -2.8 | 1.3% | 6 | -10 | 0.2
CC(C)(C)CC(=O)Nc1ccccc1N1CCN(c2ccc(F)cc2)CC1 | -5 | 5.1 | 1.0% | -13 | 51 | -0.6
O=C(Cc1cccc2ccccc12)OCn1nnc2ccccc2c1=O | 5 | -3.2 | 0.0% | 6 | 24 | 1.5
CC(C)[C@H](NC(=O)c1cccc(CN(Cc2ccccc2)C(=O)c2ccccc2)c1)C(=O)O | 4 | -4.6 | -0.8% | -4 | -6 | -0.6
N/C(COc1ccccc1)=N\NS(=O)(=O)c1ccccc1 | 3 | 1.8 | -4.0% | 3 | -3 | -0.3
CC(C)(C)c1ccc(O)c(N=Cc2cc3c(cc2[N+](=O)[O-])OCO3)c1 | -25 | u | 3.9% | -12 | -16 | 0.0
C/C(=N\NC(=O)c1ccncc1)c1cccnc1 | 0 | -13 | -0.5% | 2 | 38 | 1.3
COC(=O)c1c(NC(=O)COC(=O)CNC(=O)C2CCCCC2)sc(C)c1C | -2 | -0.2 | 0.4% | 1 | 26 | 1.6
CCCN(C)C[C@H]1Oc2ncc(Br)cc2C(=O)N([C@@H](C)CO)C[C@@H]1C | 0 | -2.6 | -1.2% | -2 | -7 | -0.6
COc1cccc(NC(=O)Cn2cc(C(=O)C3CCCCC3)c3ccccc32)c1 | x | x | 0.6% | x | -24 | 0.2
COc1cccc(-c2cc(=O)c3cc(NC(C)=O)ccc3[nH]2)c1 | -19 | -1.5 | 8.8% | -23 | -10 | 0.0
COc1ccc2cc(C#N)c(Nc3cccc(F)c3)nc2c1 | -6 | -4.6 | 3.2% | -8 | 17 | -1.0
Cn1nnnc1SCCNCc1cc(Cl)ccc1OCc1ccccc1 | -3 | -5.2 | -0.1% | 7 | -1 | 3.0
COc1cc(C(=O)OCC(=O)NC2CCCCC2)cc(OC)c1OC | 12 | -1.2 | 1.5% | 16 | -27 | 0.1
CC(C)NC(=O)Nc1cccc2c1O[C@H](CN(C)C(=O)NC1CCCCC1)[C@@H](C)CN([C@H](C)CO)C2=O | 6 | -2.7 | 0.0% | -23 | -21 | 0.1
O=C(Nc1ccc(F)cc1F)c1ccco1 | 5 | 0.2 | -3.6%[38.3 µM] | 5 | -2 | 0.5
CC1=C(C(=O)OCC2CCCCC2)C(c2ccc(F)cc2F)CC(=O)N1 (centres undefined) | x | x | 6.5% | x | -1 | -0.5
Cc1cc(Cl)ccc1NNC(=O)c1cccs1 | -7 | 3.6 | 3.5% | 1 | 40 | 1.1
O=C(Cn1cnc2c(NCc3ccccc3)ncnc21)NCC1CCCO1 (centres undefined) | 0 | -3.3 | 0.4% | -4 | -4 | 0.2
Cc1nnc(N2CCN(C(=O)Nc3cc(F)ccc3F)CC2)c2nn(-c3ccc(Cl)cc3)c(C)c12 | x | x | -0.5% | x | 29 | 2.8
O=S(=O)(Nc1ccc(Cc2ccncc2)cc1)c1cccs1 | 19 | 2.1 | x | 39 | 3 | 1.1
CN(c1ccccc1C(=O)Nc1ccc(S(=O)(=O)N2CCCC2)cc1)S(C)(=O)=O | 8 | 0.0 | -2.7%[38.3 µM] | 9 | 7 | 0.7
CCOc1cc(-c2cc(-c3ccc(NC(C)=O)cc3)nc(N)c2C#N)ccc1O | -2 | -2.6 | -0.8% | x | x | x
CC12COC3(C(=O)Nc4ccccc4)CC1CCC32C (centres undefined) | 2 | -3.9 | 0.5% | 2 | -2 | 0.6

9 entries from above, sorted by molecular weight, ascending.
Compound | Six1-Eya2 inh | D2 ag | PINK1 modulator | CtBP-E1A blk | TRPML1 inh | TRPML1 ag
O=C(Nc1ccc(F)cc1F)c1ccco1 | 5 | 0.2 | -3.6%[38.3 µM] | 5 | -2 | 0.5
Cc1cc(Cl)ccc1NNC(=O)c1cccs1 | -7 | 3.6 | 3.5% | 1 | 40 | 1.1
CC12COC3(C(=O)Nc4ccccc4)CC1CCC32C (centres undefined) | 2 | -3.9 | 0.5% | 2 | -2 | 0.6
COc1ccc2cc(C#N)c(Nc3cccc(F)c3)nc2c1 | -6 | -4.6 | 3.2% | -8 | 17 | -1.0
O=S(=O)(Nc1ccc(Cc2ccncc2)cc1)c1cccs1 | 19 | 2.1 | x | 39 | 3 | 1.1
COc1cc(C(=O)OCC(=O)NC2CCCCC2)cc(OC)c1OC | 12 | -1.2 | 1.5% | 16 | -27 | 0.1
CCOc1cc(-c2cc(-c3ccc(NC(C)=O)cc3)nc(N)c2C#N)ccc1O | -2 | -2.6 | -0.8% | x | x | x
CN(c1ccccc1C(=O)Nc1ccc(S(=O)(=O)N2CCCC2)cc1)S(C)(=O)=O | 8 | 0.0 | -2.7%[38.3 µM] | 9 | 7 | 0.7
Cc1nnc(N2CCN(C(=O)Nc3cc(F)ccc3F)CC2)c2nn(-c3ccc(Cl)cc3)c(C)c12 | x | x | -0.5% | x | 29 | 2.8

Source: PubChem BioAssay
